Source: PubChem BioAssay (National Center for Advancing Translational Sciences (NCATS))
hNpr1 antagonist: blocks ANP-stimulated signaling of human Npr1 receptor. HEK293 hNpr1 GloSensor cGMP, ANP-stimulated luminescence. Potency, µM (highest dose often 46.3 µM), inactives show at the highest dose activity change, negative = inhibition, usual class: inhibitors. 76,000 compounds, 1.6% hits. AID 1347048; active = well fitted inhibition curve with a large enough effect; inconclusive = small, poorly fitted or top-dose-only effect; inactive = no such curve, though single readings can be large or run the other way;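 note: nearly all actives have a fitted effect of over 60% in size; nearly all hits also lower the signal before the agonist is added; a reference antagonist and vehicle were the controls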
Target sequence (P16066 whole entry, looked up): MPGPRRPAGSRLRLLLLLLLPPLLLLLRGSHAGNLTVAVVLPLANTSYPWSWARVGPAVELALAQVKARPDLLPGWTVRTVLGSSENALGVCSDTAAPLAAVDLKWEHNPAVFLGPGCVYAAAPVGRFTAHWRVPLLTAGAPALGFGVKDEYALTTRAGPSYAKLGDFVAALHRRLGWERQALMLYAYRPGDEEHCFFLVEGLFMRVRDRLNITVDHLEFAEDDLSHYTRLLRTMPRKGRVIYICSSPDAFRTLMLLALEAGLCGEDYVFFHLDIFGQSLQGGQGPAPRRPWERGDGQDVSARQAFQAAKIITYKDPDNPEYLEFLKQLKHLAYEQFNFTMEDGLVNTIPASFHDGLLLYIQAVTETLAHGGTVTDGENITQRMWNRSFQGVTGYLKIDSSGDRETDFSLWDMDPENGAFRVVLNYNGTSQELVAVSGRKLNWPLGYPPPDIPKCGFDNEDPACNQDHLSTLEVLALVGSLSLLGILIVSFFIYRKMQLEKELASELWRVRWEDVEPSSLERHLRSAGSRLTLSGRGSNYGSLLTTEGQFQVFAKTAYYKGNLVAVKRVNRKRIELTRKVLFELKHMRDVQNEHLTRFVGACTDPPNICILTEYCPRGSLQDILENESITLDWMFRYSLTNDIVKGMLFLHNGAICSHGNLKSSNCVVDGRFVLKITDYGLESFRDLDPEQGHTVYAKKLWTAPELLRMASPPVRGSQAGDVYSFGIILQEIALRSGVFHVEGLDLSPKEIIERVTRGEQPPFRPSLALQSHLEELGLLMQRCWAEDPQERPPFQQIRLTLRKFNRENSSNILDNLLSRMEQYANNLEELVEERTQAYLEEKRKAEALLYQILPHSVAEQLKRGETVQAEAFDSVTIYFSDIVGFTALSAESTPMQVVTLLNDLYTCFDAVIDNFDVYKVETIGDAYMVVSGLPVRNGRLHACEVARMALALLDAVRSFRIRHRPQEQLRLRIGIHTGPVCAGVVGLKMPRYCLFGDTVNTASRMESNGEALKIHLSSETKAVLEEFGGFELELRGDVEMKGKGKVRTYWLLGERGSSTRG
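HEK293 cells stably expressing human Npr1 and cGMP GloSensor pGS-40F, loaded 2 h with 2% GloSensor reagent, given compound 30 min at room temperature. Luminescence read before and 20 min after 0.1 nM hNppA.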
An asterisk follows results filed as active; ? = inconclusive; [ ] = dose if it differs, or a comment. % is set by controls: 0 for no effect and ±100 for the full control effect; potency is the fitted concentration of half-maximal effect. Some of the compounds tested. The share of hits here may be higher or lower than overall.

item	hNpr1 antagonist	mol
1	7.7%	O=C(CCC1CCCN(S(=O)(=O)c2ccc(F)cc2)C1)NCCN1CCOCC1 (configuration not stated)
2	3.9%	Cc1ccc(NC(=O)Nc2ccc(C)n(CC(=O)NCCN3CCCC3)c2=O)cc1
3	-2.1%	CC(CCN1CCOCC1)NC(=O)c1cccc(NCC(=O)O)c1 (configuration not stated)
4	-25.2%	CCN(CC)C(=O)c1cccc(-c2ccc(OCCn3ccnc3)cc2)c1
5	-1.0%	CCCN1CCN(C(=O)C2CCCN(c3cnc4nccnc4c3)C2)CC1 (configuration not stated)
6	-12.6%	O=C(Nc1ccccc1)O[C@@H]1CO[C@H]2[C@@H]1OC[C@@H]2n1nnnc1-c1ccc2c(c1)OCCO2
7	-3.7%	CSc1ccc(-c2noc(-c3ncn4c3COC(c3ccc(F)cc3)C4)n2)cc1 (configuration not stated)
8	?	CCc1noc(CC2CCOC3(CCN(S(=O)(=O)c4cc(F)ccc4F)CC3)C2)n1 (configuration not stated)
9	-5.7%	Cc1ccc(-c2ccc3nnc(CNC(=O)c4cccnc4)n3n2)cc1C
10	1.9%	C[C@@]1(NC(=O)Cc2ccccc2)OC[C@H]2CC[C@@H](C(=O)Nc3ccc(OC(F)(F)F)cc3)N2C1=O
11	3.4%	Cc1cnc(C2CCC2)n1CCNC(=O)c1cc(C2CC2)[nH]n1
12	7.1%	CCCS(=O)(=O)N1C[C@@H](Oc2ccccc2)C[C@H]1C(=O)N1CCOCC1
13	1.7%	CC(C)Oc1ccc2ccccc2c1CN1C[C@H](O)C[C@H]1C(=O)O
14	-10.7%	CCCNC(=O)C1Cn2cccc2C(=O)N1Cc1ccccc1 (configuration not stated)
15	-13.9%	CC(C)Nc1ccnc(N2CCN(Cc3ccccc3F)C(CCO)C2)n1 (configuration not stated)
16	12.6µM*	COc1ccc(C(=O)N2CCC3(CC2)NC(=O)N(Cc2ccc(F)cc2)C3=O)cc1F
17	-5.4%[70.6 µM]	Cn1cc(CN2Cc3ccc(C(=O)Nc4ccc(F)cc4)cc3OCC2=O)cn1
18	1.0%[70.6 µM]	O=C(C1CCOCC1)N1CCOC[C@H](Oc2ccc(C(F)(F)F)cc2)C1
19	-7.3%	CCc1ccccc1OCC(=O)c1ccc2c(c1)N(CCCC(=O)N1CCOCC1)C(=O)CO2
20	-7.9%	CCN1CCN(CCCNC(=O)C2Cn3cccc3C(=O)N2C)CC1 (configuration not stated)
21	-2.5%	O=C(Cn1c(=O)oc2ccccc21)NC1CCCN(CCCc2ccccc2)C1 (configuration not stated)
22	7.4%	COCCn1nc2n(c1=O)CCN(C1CCSCC1)CC2
23	4.3%	O=C(CC1CCN(C(=O)Cc2cccc(F)c2)C1)NC1CC1 (configuration not stated)
24	-3.5%	COc1cccc(F)c1C(=O)N1C[C@H](N)C[C@H]1C(=O)NC(C)C
25	-2.7%	COC[C@@H]1[C@H](C(=O)Nc2ccc(OC)nc2)CCC(=O)N1C
26	0.0%	O=C(O)C[C@@H]1CCN(Cc2ccccc2)C[C@@H]1CCN1C[C@@H]2C[C@H](C1)c1cccc(=O)n1C2
27	2.2%	COc1ccc(NC(=O)N2C[C@@H]3C[C@H](C2)c2ccc(NC(=O)c4cccs4)c(=O)n2C3)cc1
28	3.4%	COc1ccc(OC)c(CNC(=O)C2CCN(c3cnc4nccnc4c3)CC2)c1
29	-2.5%	CC(C)Oc1ccc2c(NC(=O)c3ccc(=O)n(C)n3)nn(CC(F)(F)F)c2c1
30	6.9%	COCc1ccc2c(c1)c(OC(C)(C)C(=O)NCCCn1ccnc1)nn2Cc1cccnc1
31	-1.9%	O=C(c1ccccc1OCC1CCCN(C2CCC2)C1)N1CCOCC1 (configuration not stated)
32	2.51µM*	FC(F)(F)c1ccc(CN2CCC3(CC2)CC(c2cccnc2)=NO3)cc1
33	-2.1%	CN(C)c1ccc(C(=O)N2CCCC(COc3ccccc3C(=O)N3CCCCC3)C2)cc1 (configuration not stated)
34	-1.3%	CN(Cc1ccoc1)C1CCc2nn(C)c(=O)n2CC1 (configuration not stated)
35	-5.5%	COc1ccc(-c2cc(N3CCCC(NC(=O)c4cccc(NC(C)=O)c4)C3)n[nH]2)cc1 (configuration not stated)
36	-9.9%	Cc1ccc(CNC(=O)C2CCN(C(=O)c3ncn4c3COC(c3ccccc3)C4)CC2)cc1 (configuration not stated)
37	-0.8%	COCCc1nc(CNC(=O)C(c2cccc(F)c2)N(C)C)no1 (configuration not stated)
38	-0.7%	Cc1ncc2c(c1CNC(=O)c1ccc(OC(F)F)cc1)CCNC2
39	-26.3%	CC1=C(C(=O)Nc2ccccc2)C(c2cc(C)ccc2C)N2C(CC(=O)NC(C)C)=CSC2=N1 (configuration not stated)
40	-1.0%	Cc1cc(COc2ccccc2)oc1C(=O)N[C@@H]1CCOC[C@H]1OCCO
41	-0.3%	Cc1cccc(OCC(=O)N2CC(C(=O)NC3CCCCC3)C3(CCOCC3)C2)c1 (configuration not stated)
42	-0.5%[70.6 µM]	CN[C@@H](C)C(=O)N[C@@]1(C)OC[C@@H]2CC[C@H](C(=O)Nc3ccc(F)c(OC)c3)N2C1=O
43	-6.5%	Cc1cc2cccc(C(=O)N3CCC(Cn4cc(CO)nn4)CC3)c2o1
44	3.8%	O=C(N1CCCCC1)C1(CCO)CC12CCOCC2 (configuration not stated)
45	-13.8%	Cc1cccc(OCCc2noc(C3CN(C(=O)c4ccsc4)C3)n2)c1
46	3.9%	COc1cccc(CC(=O)N2CCCCCCNC(=O)CC2c2ccccc2)c1 (configuration not stated)
47	-5.0%	O=C(CCCc1ccccc1)N1CCCC1c1noc(COc2ccc(F)cc2)n1 (configuration not stated)
48	0.0%	C[C@]1(O)CCN(C(=O)c2ccc(N3CC(=O)NC3=O)cc2)C[C@@H]1O
49	1.1%	COc1cc(=O)n2c(c1C(=O)Nc1ccc(C)cc1Cl)CCCC2
50	13.1%	CCC(C)(C)C(=O)N1CC(c2nnc(-c3ccc(C)cc3)o2)C2(CCOCC2)C1 (configuration not stated)
51	0.0%	CC(Oc1ccccc1)C(=O)N1CCC(n2cc(-c3nc(-c4ccccc4)no3)nn2)C1 (configuration not stated)
52	-4.0%	O=C(Cn1nc2c(cc1=O)CCCCC2)NCCN1CCOCC1
53	2.8%[70.6 µM]	COc1ccc(F)cc1-c1ncc2c(n1)OCCN(CC1CC1)C2=O
54	-1.8%[70.6 µM]	CC(C)CCN1CCC2(CC1)COc1ccccc1C(=O)N2
55	-6.8%	CCc1ccccc1-n1nc(-c2c(C)nc3scc(CC(=O)NCc4ccccc4)n3c2=O)cc1C
56	7.9%	CC(C)(C)CC(=O)N1CC[C@H](NC(=O)Nc2ccc(F)cc2F)[C@H]1C(=O)N[C@H](Cc1ccccc1)C(N)=O
57	4.5%	CN(Cc1ccc2nsnc2c1)Cc1cn(-c2ccccc2)nn1
58	2.7%[70.6 µM]	CC(=O)N[C@H]1C[C@@H](Cc2cc(C(C)(C)C)on2)C1(C)C
59	8.9%[70.6 µM]	O=C(NC[C@H]1O[C@@H](CO)[C@@H](O)[C@H]1N1CCCC1)c1ccco1
60	4.8%	COCCOCC(=O)N1CCC(N2C(=O)CCC2C(=O)NCc2ccccc2)CC1 (configuration not stated)

Further results.
item	hNpr1 antagonist	mol
61	0.2%	Cc1ccc(S(=O)(=O)NC[C@H]2O[C@@H](CC(=O)N3CCN(c4ccccn4)CC3)[C@H](O)[C@@H]2O)cc1
62	0.0%	COc1ccc(-c2cc(N3CCN(C(=O)c4cc(C)cc(C)c4)CC3)n[nH]2)cc1
63	-1.3%	CC(O)c1cc2n(n1)CCCN(c1ncnc3ccsc13)C2 (configuration not stated)
64	-0.5%	Cn1nc(C2CCCNC2)n(Cc2ccccc2)c1=O (configuration not stated)
65	-3.7%[70.6 µM]	CN1CCN([C@@H]2[C@H](O)[C@H](CO)O[C@@H]2CNC(=O)c2ccccc2)CC1
66	5.0%	CCn1cc(S(=O)(=O)N2CCC(Cc3nc(-c4ccncc4)n[nH]3)C2)cn1 (configuration not stated)
67	1.6%	COc1ccc(-c2nc(C(C)C)nc3c2CCN(C(=O)c2ccccc2Cl)CC3)cc1
68	10.8%	COCC[C@]1(O)CCN(C(=O)c2cc3c(s2)CCCC3)C[C@H]1C
69	6.4%[70.6 µM]	COCC1(CNC(=O)NC(C)C)C[C@@H](O)[C@@H](O)C1 (some centres not stated)
70	-13.1%[70.6 µM]	CC(=O)Nc1ccc(CN2CCC23Cc2ccccc2NC3=O)cc1 (configuration not stated)
71	-2.6%	COc1ccccc1CNC(=O)CC1COCCN1C(=O)C1CCCCC1 (configuration not stated)
72	5.2%[70.6 µM]	COCCOCC1(CNS(=O)(=O)c2c(C)noc2C)C[C@@H](O)[C@@H](O)C1 (some centres not stated)
73	20.1%[70.6 µM]	O=C(c1nc(-c2ccc(Cl)cc2)c2cnccn12)N1CCOCC1
74	-0.7%[70.6 µM]	COCCNC(=O)c1nc(-c2ccc(Cl)cc2)c2ccccn12
75	-2.4%	COc1cc(NC(=O)CN2C(=O)NC3(CCC(C)CC3)C2=O)cc(OC)c1 (configuration not stated)
76	5.5%	O=C(c1ccsc1)N1CCN(C(=O)N2CC3CC(C2)[C@H]2CCCC(=O)N2C3)CC1 (some centres not stated)
77	-3.3%	Cc1cccc(-c2noc(-c3nc(C)no3)n2)c1
78	17.3%[70.6 µM]	C[S+](=O)([O-])N1CCC2(CC1)C(=O)NN=C2c1ccccn1
79	-13.0%	CN(C)c1ccc(C(=O)N2CCN(C(=O)c3nnn4c3COC(c3ccc(Cl)cc3)C4)CC2)cc1 (configuration not stated)
80	-11.6%	CC1=NS(=O)(=O)N(Cc2ccccc2C(F)(F)F)C=C1C(=O)O
81	-1.9%	O=C(NCCc1cccs1)C1CCN(C(=O)c2ncn3c2COC(c2ccc(F)cc2)C3)CC1 (configuration not stated)
82	0.4%[70.6 µM]	COCCOC(=O)N1CCC(COc2ccc3c(cnn3CCC(=O)O)c2)CC1
83	-3.5%	COCc1ncc(C)n1CCNC(=O)c1ccc(OC)nc1OC
84	?	CCc1nc(-c2ccc(OC3CCN(Cc4cccc(F)c4)C3)cc2)no1 (configuration not stated)
85	-0.1%	CCNC(=O)NCC12CCCC=C1NC(=O)CC2 (configuration not stated)
86	2.5%	CCC(CC)C(=O)N1C[C@@H](CO)[C@H](c2nc(-c3ccncc3)no2)C1
87	-0.2%[70.6 µM]	Cc1nn2c(c1-c1ccccc1[S+](C)(=O)[O-])N(C(=O)c1ccccc1)CCC2
88	3.4%[70.6 µM]	COC[C@H]1C[C@@H](NCc2nccn2C)[C@H](O)[C@@H]1O
89	3.9%	Cc1ccoc1C(=O)N[C@@H]1CN(c2ncccn2)C[C@H]1CO
90	-4.3%	Cn1ccc(C(=O)N2CC(CNC(=O)Nc3ccccc3)C3(C2)CN(c2ccccc2)C3)n1 (configuration not stated)

From compound 74 up to 89, copied from above:
item	hNpr1 antagonist	mol
74	-0.7%[70.6 µM]	COCCNC(=O)c1nc(-c2ccc(Cl)cc2)c2ccccn12
75	-2.4%	COc1cc(NC(=O)CN2C(=O)NC3(CCC(C)CC3)C2=O)cc(OC)c1 (configuration not stated)
76	5.5%	O=C(c1ccsc1)N1CCN(C(=O)N2CC3CC(C2)[C@H]2CCCC(=O)N2C3)CC1 (some centres not stated)
77	-3.3%	Cc1cccc(-c2noc(-c3nc(C)no3)n2)c1
78	17.3%[70.6 µM]	C[S+](=O)([O-])N1CCC2(CC1)C(=O)NN=C2c1ccccn1
79	-13.0%	CN(C)c1ccc(C(=O)N2CCN(C(=O)c3nnn4c3COC(c3ccc(Cl)cc3)C4)CC2)cc1 (configuration not stated)
80	-11.6%	CC1=NS(=O)(=O)N(Cc2ccccc2C(F)(F)F)C=C1C(=O)O
81	-1.9%	O=C(NCCc1cccs1)C1CCN(C(=O)c2ncn3c2COC(c2ccc(F)cc2)C3)CC1 (configuration not stated)
82	0.4%[70.6 µM]	COCCOC(=O)N1CCC(COc2ccc3c(cnn3CCC(=O)O)c2)CC1
83	-3.5%	COCc1ncc(C)n1CCNC(=O)c1ccc(OC)nc1OC
84	?	CCc1nc(-c2ccc(OC3CCN(Cc4cccc(F)c4)C3)cc2)no1 (configuration not stated)
85	-0.1%	CCNC(=O)NCC12CCCC=C1NC(=O)CC2 (configuration not stated)
86	2.5%	CCC(CC)C(=O)N1C[C@@H](CO)[C@H](c2nc(-c3ccncc3)no2)C1
87	-0.2%[70.6 µM]	Cc1nn2c(c1-c1ccccc1[S+](C)(=O)[O-])N(C(=O)c1ccccc1)CCC2
88	3.4%[70.6 µM]	COC[C@H]1C[C@@H](NCc2nccn2C)[C@H](O)[C@@H]1O
89	3.9%	Cc1ccoc1C(=O)N[C@@H]1CN(c2ncccn2)C[C@H]1CO

The list goes on:
item	hNpr1 antagonist	mol
91	-27.8%	CC(C)c1nc(NCc2ccccc2Cn2cccn2)c2cnn(C)c2n1
92	1.5%	CCCc1ccc(S(=O)(=O)N2CCN(C3CCN(CCOC)C3=O)CC2)cc1 (configuration not stated)
93	4.4%	COc1ccc(C2(C(=O)NCCc3ncc(C)n3CC3CC3)CC2)cc1
94	2.2%	CC[C@H](C)[C@H](N)C(=O)N1CCC2(CC1)Nc1ccccc1NC2=O
95	2.7%	COc1ccc(NC(=O)c2cc3c(N(C)Cc4ccccc4)nc(C)cn3n2)cc1F
96	-11.8%[70.6 µM]	CC1=C[C@@H](CNC(=O)c2ccc(C#N)cc2)[C@H](C(C)C)C[C@H]1CC(=O)N1CCCC1
97	-13.8%[70.6 µM]	CN(C(=O)c1cccc(Cl)c1)C1CCCc2ccccc21 (configuration not stated)
98	-5.3%	COc1cc(OC)cc(N2C(=O)[C@@H]3C[C@@H](NC(=O)c4ccc(SC)cc4OC)CCN3C2=O)c1
99	-2.1%	O=C(N1CCN(S(=O)(=O)c2cccnc2)CC1)N1CC2CC(C1)[C@H]1CCCC(=O)N1C2 (some centres not stated)
100	-1.7%	COc1ccc(OC)c(NC(=O)C2CCN(C(=O)N3CC4CC(C3)[C@H]3CCCC(=O)N3C4)CC2)c1 (some centres not stated)
